PD-1 reverse act = activators reversing PD-1 mediated T-cell inhibition; primary human CD4 T cells, PD-L1 beads, CellTiter-Glo 96 h; activation, % (no concentration beside the values); 29,000 tested, under 10 active;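 active = replicate mean of 50% or more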;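 note: 0% = median vehicle wells and 100% = positive control; 100 nL library stock added to about 50 µL; numbers are from one replicate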
YB-1 expression = YB-1 expression inhibition | U2OS, qRT-PCR YB-1 vs CDIP delta delta Cp, 16 h; stronger effect = higher value; zero = DMSO, each unit about twofold | delta delta Cp (YB-1 minus CDIP) (concentration not given with the values) | 30,000 tested, 0.37% active;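 active = delta delta Cp rounded down to an integer at or above 3, about 3 SD of DMSO wells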;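 note: higher means less YB-1 transcript or more CDIP transcript relative to DMSO; stock transfer was 100 nL into about 100 µL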
Shh pathway inh = blocks Sonic Hedgehog signaling | 22,000 tested, 2.1% active | Shh-LIGHT2 Gli-luciferase reporter, 30 h | inhibition, % (test concentration not listed);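 active = replicate mean of 65% or more; inconclusive = mean lower but half the replicates past it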;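 note: pathway switched on by Shh-conditioned medium diluted 1 in 25 in low serum; 100 nL library stock added to about 40 µL; 0% = median of neutral wells and 100% = positive control level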
MITF inh = MITF inhibition; TRPM1 promoter luciferase, luminescence, 24 h; 37,000 tested, 0.28% active; inhibition, % (concentration not given with the values); AID 2240;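 active = most replicates at 85% or more, or half of them and the mean; inconclusive = half reach 85% but not the mean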;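 note: human melanocyte line stably carrying TRPM1 promoter luciferase reporter; 0% = vehicle wells and 100% = a positive control; the first replicate is given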
The depositor's hits bear a star; u = inconclusive; x = not tested or not shown. Not all compounds are listed; the hit share may differ from the screen's.

A first look (seven entries):
SMILES	PD-1 reverse act	YB-1 expression	Shh pathway inh	MITF inh
CC(=O)OCc1ccccc1Sc1ccccc1C(=O)Nc1ccccc1	0.8	-1.1	24	12
C[C@@H]1CN([C@@H](C)CO)C(=O)c2cc(NC(=O)CCN3CCOCC3)ccc2O[C@H]1CN(C)C	0.4	0.071	x	-3
CS(=O)(=O)N(CC(=O)Nc1cccc2ccccc12)c1ccc(Cl)cc1	1.4	x	x	-33
C[C@H](CO)N1C[C@H](C)[C@@H](CN(C)Cc2ccc(C(=O)O)cc2)Oc2c(NS(=O)(=O)c3ccc(F)cc3)cccc2C1=O	x	0.68	-18	-8
Cc1nc2sccn2c(=O)c1CCN1CCC(=C(c2ccccc2)c2ccc(F)cc2)CC1	-2.5	0.67	71*	-4
C[C@@H]1CN([C@H](C)CO)C(=O)c2cccc(NC(=O)c3cnccn3)c2O[C@H]1CN(C)Cc1ccncc1	1.3	0.028	22	3
C[C@@H]1CN([C@@H](C)CO)C(=O)c2cc(NC(=O)Cn3cnnn3)ccc2O[C@H]1CN(C)C(=O)Nc1ccc(C(F)(F)F)cc1	1.8	0.35	-99	-6

This part in full, previewed entries included:
SMILES	PD-1 reverse act	YB-1 expression	Shh pathway inh	MITF inh
CC(=O)OCc1ccccc1Sc1ccccc1C(=O)Nc1ccccc1	0.8	-1.1	24	12
C[C@@H]1CN([C@@H](C)CO)C(=O)c2cc(NC(=O)CCN3CCOCC3)ccc2O[C@H]1CN(C)C	0.4	0.071	x	-3
CS(=O)(=O)N(CC(=O)Nc1cccc2ccccc12)c1ccc(Cl)cc1	1.4	x	x	-33
C[C@H](CO)N1C[C@H](C)[C@@H](CN(C)Cc2ccc(C(=O)O)cc2)Oc2c(NS(=O)(=O)c3ccc(F)cc3)cccc2C1=O	x	0.68	-18	-8
Cc1nc2sccn2c(=O)c1CCN1CCC(=C(c2ccccc2)c2ccc(F)cc2)CC1	-2.5	0.67	71*	-4
C[C@@H]1CN([C@H](C)CO)C(=O)c2cccc(NC(=O)c3cnccn3)c2O[C@H]1CN(C)Cc1ccncc1	1.3	0.028	22	3
C[C@@H]1CN([C@@H](C)CO)C(=O)c2cc(NC(=O)Cn3cnnn3)ccc2O[C@H]1CN(C)C(=O)Nc1ccc(C(F)(F)F)cc1	1.8	0.35	-99	-6
CC1(C)CC[C@]2(C(=O)O[C@@H]3O[C@H](CO)[C@@H](O)[C@H](O)[C@H]3O)CC[C@]3(C)C(=CCC4[C@@]5(C)C[C@@H](O)[C@H](O)[C@@](C)(CO)C5[C@H](O)C[C@]43C)C2[C@@H]1O (stereo partly drawn)	1.9	0.17	-21	-2
CNC[C@@H]1Oc2c(NS(=O)(=O)c3cccs3)cccc2C(=O)N([C@H](C)CO)C[C@@H]1C	1.1	-0.0038	-25	3
C[C@@H]1CN([C@@H](C)CO)C(=O)c2cc(NC(=O)Cn3cnnn3)ccc2O[C@@H]1CN(C)S(=O)(=O)c1ccccc1	0.9	0.2	-13	-2
C[C@@H]1CN([C@H](C)CO)C(=O)Cc2cc(NC(=O)CCCCCC(=O)Nc3ccccc3N)ccc2O[C@@H]1CN(C)C(=O)Nc1ccc(F)cc1	0.1	0.42	x	-26
COc1ccc(C(=O)CSc2nc3nc(C)cc(C)n3n2)cc1OC	-0.4	x	x	-19
C[C@@H]1CN([C@@H](C)CO)C(=O)c2cccc(NC(=O)Nc3ccc4c(c3)OCO4)c2O[C@@H]1CN(C)C(=O)Nc1ccc(F)cc1	1.6	-0.3	29	3
Cn1c(SCC(=O)Nc2ccc(C(N)=O)cc2)nnc1-c1ccccn1	2.4	x	x	-13
C[C@@H]1CN([C@@H](C)CO)C(=O)c2cc(NC(=O)CCN3CCOCC3)ccc2O[C@H]1CN(C)S(=O)(=O)c1ccc(Cl)cc1	0.4	-0.092	-31	1
Cc1ccc(S(=O)(=O)Nc2ccc3c(c2)C(=O)N([C@H](C)CO)C[C@H](C)[C@H](CN(C)C(=O)Nc2ccccc2)O3)cc1	-4.7	-0.34	x	-22
C[C@H](CO)N1C[C@H](C)[C@H](CN(C)C(=O)Nc2ccc3c(c2)OCO3)Oc2ccc(NC(=O)CCN3CCOCC3)cc2CC1=O	0.0	-0.21	u	10
O=C(Cc1ccccc1)NC1CCCCCC1	-1.3	-0.25	-14	-23
CCCNC(=O)Nc1ccc(N2CCC(C(F)(F)F)CC2)nc1	0.0	0.72	-3	-17
C[C@@H]1CN([C@@H](C)CO)C(=O)c2cccc(NS(=O)(=O)c3cn(C)cn3)c2O[C@H]1CN(C)Cc1ccc(C(=O)Nc2ccccc2N)cc1	0.0	-0.16	x	-18
CC(C)NC(=O)Nc1cccc2c1O[C@H](CN(C)C(=O)Nc1cccc3ccccc13)[C@H](C)CN([C@H](C)CO)C2=O	x	-0.14	2	1
COCOc1ccc(C(=O)O)cc1OC	0.6	0.3	-11	4
CCc1ccc(C(=O)Nc2nccs2)cc1	-0.8	-0.45	-330	52
C[C@@H]1CN([C@H](C)CO)C(=O)Cc2cc(NC(=O)Cc3cn(C)c4ccccc34)ccc2O[C@@H]1CN(C)S(=O)(=O)c1ccccc1	x	0.029	25	19
C[C@H]1CN([C@@H](C)CO)C(=O)c2cc(NC(=O)CCC(F)(F)F)ccc2O[C@H]1CN(C)S(=O)(=O)c1ccc(Cl)cc1	0.0	-0.14	11	-1
(cont.)
SMILES	PD-1 reverse act	YB-1 expression	Shh pathway inh	MITF inh
O=C(CSc1ncnc2sc3c(c12)CCCC3)Nc1cccc(F)c1	0.5	x	x	-24
CC(C)NC(=O)Nc1ccc2c(c1)CC(=O)N([C@@H](C)CO)C[C@H](C)[C@@H](CN(C)C)O2	x	-0.015	x	-2
C[C@@H]1CN([C@@H](C)CO)C(=O)c2cc(NS(=O)(=O)c3ccccc3)ccc2O[C@H]1CN(C)Cc1ccc(C(=O)Nc2ccccc2N)cc1	-1.7	-0.11	x	16
COc1ccc(OC)c(NC(=O)c2ccc(CSc3nnnn3C)cc2)c1	1.3	x	x	-8
COc1ccc(NC(=O)CC(=O)CSc2ccccc2)cc1	-2.1	0.069	-1	-28
C[C@@H]1CN([C@@H](C)CO)C(=O)c2cccc(NC(=O)C3CC3)c2O[C@H]1CN(C)Cc1ccc(C(=O)O)cc1	-1.0	-1.6	-10	1
COc1ccc(NC(=O)N(C)C[C@H]2Oc3c(NS(=O)(=O)c4ccc(C)cc4)cccc3C(=O)N([C@@H](C)CO)C[C@@H]2C)cc1	-0.3	-0.62	-28	-9
Cc1ccc(S(=O)(=O)N(C)C[C@H]2Oc3ccc(NC(=O)Nc4ccccc4)cc3CC(=O)N([C@@H](C)CO)C[C@@H]2C)cc1	-2.0	-0.33	-8	9
C[C@H](CO)N1C[C@H](C)[C@H](CN(C)Cc2ccccc2)Oc2ccc(NC(=O)Nc3ccc(F)cc3)cc2C1=O	x	2.7	x	3
CCOC(=O)c1cc2c(oc1=O)c(I)cc1oc3c(c12)CCCC3	0.1	0.065	-1	-4
O=C(Cn1nnc2ccccc21)OCc1ccccc1Cl	1.7	x	x	-20
CC1(C)O[C@@H]2C[C@H]3[C@@H]4CCC5=CC(=O)CC[C@]5(C)[C@@]4(F)[C@@H](O)C[C@]3(C)[C@]2(C(=O)CCl)O1	-7.7	0.57	20	-50
O=C(CS(=O)(=O)c1ccc2ccccc2c1)c1cc2ccccc2oc1=O	0.3	x	x	-3
C[C@@H]1CN([C@H](C)CO)C(=O)Cc2cc(NC(=O)Nc3ccc4c(c3)OCO4)ccc2O[C@H]1CN(C)Cc1ccccc1	x	-0.016	-15	2
COc1ccc(OC)c(NC(=O)COc2ccc([N+](=O)[O-])cc2)c1	2.4	x	x	-25
COc1ccc(NC2CS(=O)(=O)CC2OC(=O)c2ccc(F)cc2)cc1 (stereo not drawn)	0.2	-0.31	-11	-6
C[C@H]1CN([C@@H](C)CO)C(=O)c2cccc(NS(=O)(=O)c3ccc(Cl)cc3)c2O[C@H]1CN(C)S(=O)(=O)c1ccc(Cl)cc1	-2.2	0.12	40	34
CNC[C@@H]1OCCCC[C@@H](C)Oc2ccc(NC(=O)Nc3ccccc3)cc2C(=O)N([C@H](C)CO)C[C@@H]1C	2.2	0.18	23	-4
C[C@@H]1CN([C@@H](C)CO)C(=O)c2cccc(NS(=O)(=O)c3ccc(F)cc3)c2O[C@@H]1CN(C)Cc1ccc(-c2ccccc2)cc1	-0.9	0.52	6	-2
O=C(O)CN(c1ccccc1)S(=O)(=O)c1ccc(Cl)cc1	0.4	x	x	-6
C[C@@H]1CN([C@H](C)CO)C(=O)c2cccc(NS(C)(=O)=O)c2O[C@@H]1CN(C)Cc1ccccc1	0.1	0.25	-76	-5
Nc1ccc(-c2nnc(SCC(=O)c3ccc(F)cc3)n2-c2ccccc2)cc1	-4.9	x	x	5
C[C@@H]1CN([C@@H](C)CO)C(=O)Cc2cc(NS(=O)(=O)c3cn(C)cn3)ccc2O[C@@H]1CN(C)CC1CCCCC1	1.2	0.21	14	-6
COc1ccc(S(=O)(=O)Nc2ccc3c(c2)C(=O)N([C@@H](C)CO)C[C@H](C)[C@H](CN(C)S(=O)(=O)c2ccc(OC)cc2)O3)cc1	0.2	-0.29	x	-2
C[C@@H]1CN([C@@H](C)CO)C(=O)c2cccc(NC(=O)Nc3ccc(C(F)(F)F)cc3)c2O[C@@H]1CN(C)C(=O)NC1CCCCC1	0.3	-0.06	-64	2
Next structures:
SMILES	PD-1 reverse act	YB-1 expression	Shh pathway inh	MITF inh
COc1ccc(NC(=O)Nc2ccc3c(c2)C(=O)N([C@H](C)CO)C[C@@H](C)[C@H](CN(C)S(=O)(=O)c2ccc(OC)cc2)O3)cc1	-0.7	0.22	x	-28
O=C1OCCN/C1=C\C(=O)c1ccccc1	1.4	-0.54	x	7
C[C@@H]1CN([C@@H](C)CO)C(=O)c2cccc(NS(=O)(=O)c3cn(C)cn3)c2O[C@@H]1CN(C)C(=O)Nc1ccc(F)cc1	1.7	1	-1	-8
C[C@@H]1CN([C@@H](C)CO)C(=O)c2cccc(NC(=O)Nc3ccc(C(F)(F)F)cc3)c2O[C@@H]1CN(C)S(=O)(=O)c1cn(C)cn1	-1.2	0.11	-16	-17
C[C@H](CO)N1C[C@H](C)[C@H](CN(C)S(=O)(=O)c2ccccc2)Oc2ccc(NC(=O)Nc3ccccc3)cc2CC1=O	x	-0.029	-9	2
O=C(c1ccc2c(c1)C(=O)c1ccccc1-2)c1ccccc1Br	1.4	0.24	-8	-9
C[C@H](CO)N1C[C@H](C)[C@H](CN(C)S(=O)(=O)c2cn(C)cn2)Oc2c(NC(=O)C3CCCCC3)cccc2C1=O	1.1	0.3	7	-5
O=C(CSc1nnc(-c2ccccc2)n1-c1ccccc1)Nc1ccc(Br)c(Cl)c1	-3.0	x	x	19
CS(=O)(=O)N(CC(=O)Nc1ccccc1C(=O)N1CCOCC1)c1cc(C(F)(F)F)ccc1Cl	0.2	x	x	0
C[C@@H]1CN([C@@H](C)CO)C(=O)c2cccc(NC(=O)Nc3ccccc3)c2O[C@@H]1CN(C)C(=O)Nc1cccc2ccccc12	0.6	0.31	u	-6
CC(=O)N1c2ccccc2C=Cc2ccccc21	-0.1	0.16	12	5
C[C@@H]1CN([C@@H](C)CO)C(=O)c2cc(NC(=O)Nc3ccccc3)ccc2O[C@H]1CN(C)C(=O)Nc1ccccc1	0.0	0.3	36	11
COc1ccc(NC(=O)Nc2ccc3c(c2)C(=O)N([C@H](C)CO)C[C@H](C)[C@@H](CN(C)CC2CCCCC2)O3)cc1	1.7	-0.071	x	-5
C[C@@H]1CN([C@@H](C)CO)C(=O)c2cc(NS(=O)(=O)c3ccc(Cl)cc3)ccc2O[C@@H]1CN(C)S(=O)(=O)c1cn(C)cn1	0.7	-0.18	-22	3
COc1ccc(Cl)cc1NC(=O)CSc1nnc(-c2ccccc2)n1-c1ccc(C)cc1	-0.6	x	x	29
C[C@H]1CN([C@@H](C)CO)C(=O)c2cccc(NC(=O)C3CC3)c2O[C@@H]1CN(C)S(=O)(=O)c1ccc(F)cc1	-0.2	0.16	-2	-7
C[C@@H]1CN([C@H](C)CO)C(=O)Cc2cc(NC(=O)CCCN(C)C)ccc2O[C@@H]1CN(C)Cc1ccc(Oc2ccccc2)cc1	x	0.067	52	7
COc1ccc(S(=O)(=O)N(C)C[C@@H]2Oc3ccc(NC(=O)CCCCCC(=O)Nc4ccccc4N)cc3C(=O)N([C@@H](C)CO)C[C@@H]2C)cc1	-0.1	0.061	x	-4
COc1ccc(S(=O)(=O)Nc2cccc3c2O[C@H](CN(C)Cc2ccncc2)[C@@H](C)CN([C@@H](C)CO)C3=O)cc1	0.0	0.16	-5	-3
CC(C)NC(=O)Nc1cccc2c1O[C@H](CN(C)Cc1ccncc1)[C@H](C)CN([C@@H](C)CO)C2=O	x	-0.36	-11	-1
CCCCS(=O)(=O)NC1=NCN(CCO)CN1	-0.1	-0.15	-14	-6
O=C(c1ccc(Oc2ccccc2)cc1)c1coc2ccc(O)cc12	0.0	-0.55	-49	63
O=C(Nc1ccccc1C(=O)N1CCN(Cc2ccccc2)CC1)c1ccccn1	-1.3	0.043	-4	5
Cc1noc(C)c1NC(=O)N(C)C[C@@H]1Oc2ccc(NC(=O)C3CC3)cc2C(=O)N([C@H](C)CO)C[C@H]1C	-0.2	-0.32	x	-6
Cc1ccc(CC(=S)N2CCOCC2)cn1	0.3	-0.27	x	8

Assay outcomes from PubChem BioAssay.
